KCNQ2 inh = KCNQ2 potassium channel inhibitors, primary screen, cell-based, CHO-K1, FluxOR thallium flux, B-score (AID 2156) | 20 min; stronger effect = lower value; only compounds with negative scores are shown here; some inactives read as strong as hits | O88943 | 310,000 compounds, 1.1% hits | B-score at 10 µM;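 active = fluorescence ratio B-score at most minus 3 library SDs, with starting brightness B-score within 2 library SDs, cut at about -5.5 in these data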
Target sequence (O88943 whole entry, looked up): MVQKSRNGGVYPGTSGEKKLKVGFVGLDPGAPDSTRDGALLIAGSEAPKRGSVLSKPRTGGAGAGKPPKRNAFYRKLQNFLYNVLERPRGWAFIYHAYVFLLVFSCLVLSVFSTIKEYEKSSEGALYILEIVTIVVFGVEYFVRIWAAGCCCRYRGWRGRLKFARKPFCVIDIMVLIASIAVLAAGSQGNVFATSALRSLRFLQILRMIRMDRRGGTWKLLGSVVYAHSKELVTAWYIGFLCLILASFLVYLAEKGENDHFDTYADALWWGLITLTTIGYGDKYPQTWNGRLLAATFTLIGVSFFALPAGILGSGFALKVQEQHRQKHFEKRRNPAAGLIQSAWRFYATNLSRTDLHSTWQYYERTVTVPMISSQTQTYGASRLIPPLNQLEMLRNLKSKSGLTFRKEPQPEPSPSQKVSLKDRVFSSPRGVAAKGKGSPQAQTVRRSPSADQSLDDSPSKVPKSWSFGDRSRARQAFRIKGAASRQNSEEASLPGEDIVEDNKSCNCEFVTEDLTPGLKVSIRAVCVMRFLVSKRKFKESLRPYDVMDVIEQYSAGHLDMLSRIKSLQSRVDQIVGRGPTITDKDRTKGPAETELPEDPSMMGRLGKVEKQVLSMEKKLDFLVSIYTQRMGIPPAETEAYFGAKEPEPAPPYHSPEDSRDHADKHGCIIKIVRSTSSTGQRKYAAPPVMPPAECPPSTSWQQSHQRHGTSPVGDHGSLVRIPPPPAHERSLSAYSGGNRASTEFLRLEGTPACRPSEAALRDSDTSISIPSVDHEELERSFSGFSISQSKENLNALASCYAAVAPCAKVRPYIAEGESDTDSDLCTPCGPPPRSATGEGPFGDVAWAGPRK
KCNQ2 inh baseline = recorded beside KCNQ2 inh, whose call it bears; B-score; measured here: initial fluorescence intensity artifact check;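 brightness before thallium and not channel activity; 0 = typical well and far values either way flag optical interference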
Numbers without * were called inactive. These rows are one share of the data; the hit share may differ from the screen's.

Screening COc1ccccc1N(CC(=O)NCCSc1ccc(Cl)cc1)S(C)(=O)=O returned KCNQ2 inh inactive and KCNQ2 inh baseline -0.93.
COc1ccc(CNC(=O)CN(C)S(=O)(=O)c2ccc(Cl)cc2)cc1 was read as KCNQ2 inh inactive and KCNQ2 inh baseline 1.6.
COc1ccc(/C=C\C(=O)NCc2ccc3[nH]c(C)cc3c2)cc1OC was read as KCNQ2 inh inactive and KCNQ2 inh baseline -0.38.
`Cc1onc(-c2ccccc2Cl)c1C(=O)N(Cc1ccccc1)C(C)C` gave KCNQ2 inh inactive and KCNQ2 inh baseline 0.72.
`CC(=O)Nc1ccc(SCC(=O)OCC(=O)NC(=O)NC2CCCC2)cc1` gave KCNQ2 inh inactive and KCNQ2 inh baseline 1.8.
Screening O=S(=O)(Cc1ncc(C(F)(F)F)cc1Cl)c1ccccc1 returned KCNQ2 inh inactive and KCNQ2 inh baseline 2.9.
`Cn1c(C(O)c2ccc(Br)cc2)nc(Cl)c1Cl` (stereo not given) gave KCNQ2 inh inactive and KCNQ2 inh baseline 1.3.
Screening O=C(CSc1nnc(NC(=O)c2ccccc2F)s1)NC1CC1 returned KCNQ2 inh inactive and KCNQ2 inh baseline 1.4.
For CN(C)S(=O)(=O)c1cccc(NC(=O)c2cnccn2)c1 the results were KCNQ2 inh inactive and KCNQ2 inh baseline -0.38.
`Cc1ccc(S(=O)(=O)Nc2cc(C)c(O)cc2C)cc1` gave KCNQ2 inh inactive and KCNQ2 inh baseline -0.84.
For CCN(CC)c1cc(C)c2cc(NC(=O)c3ccccc3F)ccc2n1 the results were KCNQ2 inh inactive and KCNQ2 inh baseline -0.02.
For Cc1cccc(C(=O)Oc2ccccc2C2C[C@]3(C)CC(=O)NC3N2C(=O)c2cccc(C)c2)c1 (stereo not given in full) the results were KCNQ2 inh inactive and KCNQ2 inh baseline -0.02.
Screening COc1cccc(CC(NC(C)=O)C(=O)NC2CCN(S(=O)(=O)c3ccc4ccccc4c3)CC2)c1 (stereo not given) returned KCNQ2 inh inactive and KCNQ2 inh baseline 1.8.
Screening COc1ccccc1N(C)S(=O)(=O)c1ccc(C(=O)N2CCCc3ccccc32)cc1 returned KCNQ2 inh inactive and KCNQ2 inh baseline 0.06.
N#C/C(=C/c1ccc(F)cc1)c1nnc(NC(=O)c2ccccc2)s1 was read as KCNQ2 inh inactive and KCNQ2 inh baseline -0.08.
`O=C(/C=C/c1ccccc1Cl)N(Cc1cccs1)C1CCS(=O)(=O)C1` (stereo not given) gave KCNQ2 inh inactive and KCNQ2 inh baseline 0.52.
For C=CCO/N=C(/CCC)C1=C(N)CC(C)(C)CC1=O the results were KCNQ2 inh inactive and KCNQ2 inh baseline -0.4.
O=C(NCC(O)c1ccc([N+](=O)[O-])cc1)Nc1ccccc1 (stereo not given) was read as KCNQ2 inh inactive and KCNQ2 inh baseline 0.97.
For Cc1onc(-c2ccccc2)c1CNC(=O)Nc1ccccc1 the results were KCNQ2 inh inactive and KCNQ2 inh baseline -0.03.
Cc1ccc(C)c(N(CC(=O)NC2CCCC2)C(=O)CCCC(=O)Nc2ccccn2)c1 was read as KCNQ2 inh inactive and KCNQ2 inh baseline -0.8.
For CCOC(=O)c1c(NC(=O)/C=C/c2ccc3c(c2)OCO3)sc(C)c1CC the results were KCNQ2 inh inactive and KCNQ2 inh baseline 2.2.
For Cc1cccnc1NC(=O)CNC(=O)COc1ccccc1 the results were KCNQ2 inh inactive and KCNQ2 inh baseline -0.59.
`Cc1ccc(C)c(-c2cc(C(=O)Nc3cccc(C(=O)O)c3)c3ccccc3n2)c1` gave KCNQ2 inh inactive and KCNQ2 inh baseline -0.25.
CC1Oc2ccccc2N(CC(=O)NCCN2CCOCC2)C1=O (stereo not given) was read as KCNQ2 inh inactive and KCNQ2 inh baseline 3.6.
For NC(=O)c1ccc(Cl)c2ccccc12 the results were KCNQ2 inh inactive and KCNQ2 inh baseline -0.89.
Screening OCC[C@@H]1C[C@@H](O)[C@H](O)[C@@]2(Cc3ccccc3O2)O1 returned KCNQ2 inh inactive and KCNQ2 inh baseline 0.63.
Screening CCOC(=O)COc1c(Cl)cc(/C=C2\N=C(C)OC2=O)cc1OC returned KCNQ2 inh inactive and KCNQ2 inh baseline -0.26.
Cc1cc(C)cc(OCc2nnc(SCC(=O)OC(C)C)o2)c1 was read as KCNQ2 inh inactive and KCNQ2 inh baseline 1.7.
COC(CN(C)S(=O)(=O)c1cc2c3c(c1)CCN3C(=O)CC2)OC was read as KCNQ2 inh inactive and KCNQ2 inh baseline 1.7.
For COc1ccc(NS(=O)(=O)c2cccs2)cc1S(=O)(=O)N1CCOCC1 the results were KCNQ2 inh inactive and KCNQ2 inh baseline 1.5.
CCN(CC)S(=O)(=O)c1ccc2c(c1)C(=NO)c1cc(S(=O)(=O)N(CC)CC)ccc1-2 was read as KCNQ2 inh inactive and KCNQ2 inh baseline -0.17.
Screening CCN(CC(=O)NC(C)(C)C)C(=O)COc1c(Cl)cc(Cl)c2ccc(C)nc12 returned KCNQ2 inh inactive and KCNQ2 inh baseline -0.03.
Screening O=C(NNc1ncnc2c1cnn2-c1ccccc1)c1ccco1 returned KCNQ2 inh inactive and KCNQ2 inh baseline -1.6.
`O=C(COC(=O)c1ccc(Cl)c(S(=O)(=O)N2CCc3ccccc3C2)c1)Nc1ncc(Cl)cc1Cl` gave KCNQ2 inh inactive and KCNQ2 inh baseline -1.3.
Screening COc1ccc(CN2C(=O)CNC2=S)cc1 returned KCNQ2 inh inactive and KCNQ2 inh baseline -1.9.
Screening CC(C)(C)C(=O)COC(=O)c1ccccc1O returned KCNQ2 inh inactive and KCNQ2 inh baseline 1.3.
`O=C(c1ccc(Br)o1)N1N=C(c2ccc(Cl)cc2)CC1c1ccco1` (stereo not given) gave KCNQ2 inh inactive and KCNQ2 inh baseline -1.5.
Screening O=C(O)C#Cc1cccc2ccccc12 returned KCNQ2 inh inactive and KCNQ2 inh baseline 0.12.
For Cc1ccc(/C=N/n2c(-c3ccncc3)n[nH]c2=S)s1 the results were KCNQ2 inh inactive and KCNQ2 inh baseline -0.07.
Screening CC(C)c1ccc(C2C3=C(CC(C)(C)CC3=O)NC3=C2C(=O)c2ccccc23)cc1 (stereo not given) returned KCNQ2 inh inactive and KCNQ2 inh baseline 0.1.

Next part, starting with the last 6 of the part before.
Screening COc1ccc(CN2C(=O)CNC2=S)cc1 returned KCNQ2 inh inactive and KCNQ2 inh baseline -1.9.
Screening CC(C)(C)C(=O)COC(=O)c1ccccc1O returned KCNQ2 inh inactive and KCNQ2 inh baseline 1.3.
`O=C(c1ccc(Br)o1)N1N=C(c2ccc(Cl)cc2)CC1c1ccco1` (stereo not given) gave KCNQ2 inh inactive and KCNQ2 inh baseline -1.5.
Screening O=C(O)C#Cc1cccc2ccccc12 returned KCNQ2 inh inactive and KCNQ2 inh baseline 0.12.
For Cc1ccc(/C=N/n2c(-c3ccncc3)n[nH]c2=S)s1 the results were KCNQ2 inh inactive and KCNQ2 inh baseline -0.07.
Screening CC(C)c1ccc(C2C3=C(CC(C)(C)CC3=O)NC3=C2C(=O)c2ccccc23)cc1 (stereo not given) returned KCNQ2 inh inactive and KCNQ2 inh baseline 0.1.
Screening CC(C)[C@H](NC(=O)C1CC(=O)N(c2ccc3c(c2)OCCO3)C1)C(=O)NC1CCCC1 (stereo not given in full) returned KCNQ2 inh inactive and KCNQ2 inh baseline -3.2.
`CCC(=O)N(Cc1ccc(S(N)(=O)=O)cc1)C1CC(=O)N(c2ccc(OC)cc2)C1=O` (stereo not given) gave KCNQ2 inh inactive and KCNQ2 inh baseline 0.76.
`COc1ccc(Nc2cc(C(=O)NCc3cccnc3)c3ccccc3n2)c(OC)c1` gave KCNQ2 inh inactive and KCNQ2 inh baseline 2.4.
`Cc1ccc(Cc2cc(C)n[nH]c2=O)cc1` gave KCNQ2 inh inactive and KCNQ2 inh baseline 0.11.
Cc1cccc(-c2nsc(SCC(=O)NCc3ccco3)n2)c1 was read as KCNQ2 inh inactive and KCNQ2 inh baseline 0.24.
Cn1nc(C(F)(F)F)c(/C=N/OC(=O)c2ccccc2)c1Cl was read as KCNQ2 inh inactive and KCNQ2 inh baseline -0.36.
For COc1ccc(C(=O)NC2CC3CCCC(C2)N3Cc2ccccc2)cc1 (stereo not given) the results were KCNQ2 inh inactive and KCNQ2 inh baseline 3.
`O=C(NCc1ccccc1Cl)C1CCN(C(=O)c2ccco2)CC1` gave KCNQ2 inh inactive and KCNQ2 inh baseline -0.29.
For CC(C)(C)NC(=O)NCc1ccco1 the results were KCNQ2 inh inactive and KCNQ2 inh baseline 1.1.
COc1cccc(-c2nc(N3CCCCC3C)c3ccccc3n2)c1O (stereo not given) was read as KCNQ2 inh -6.8* and KCNQ2 inh baseline -1.6*.
COc1cc(/C=N/NC(=O)c2cc(-c3ccccc3)nc3ccccc23)ccc1O was read as KCNQ2 inh inactive and KCNQ2 inh baseline 0.21.
For O=C(c1csc2ccccc12)N1CCN(c2ccccn2)CC1 the results were KCNQ2 inh inactive and KCNQ2 inh baseline -1.3.
COc1cc2nc(N(CCCN(C)C)C(=O)c3ccc(S(=O)(=O)N4CCc5ccccc5C4)cc3)sc2cc1OC was read as KCNQ2 inh inactive and KCNQ2 inh baseline 0.89.
`COc1cc(C=O)ccc1OCC(=O)Nc1cccc(S(=O)(=O)N(C)c2ccccc2)c1` gave KCNQ2 inh -8.3* and KCNQ2 inh baseline 2.7*.
Screening O=C(Oc1cc(=O)oc2ccccc12)c1ccccc1 returned KCNQ2 inh inactive and KCNQ2 inh baseline -0.5.
For C/C(=N/NC(=O)c1cc(Cl)ccc1O)C12CC3CC(CC(C3)C1)C2 the results were KCNQ2 inh inactive and KCNQ2 inh baseline 0.18.
For Clc1ccc(CSc2nnc(-c3cccnc3)o2)cc1 the results were KCNQ2 inh inactive and KCNQ2 inh baseline -0.95.
Screening CCc1nnc(NC=C2C(=O)OC(C)(C)OC2=O)s1 returned KCNQ2 inh inactive and KCNQ2 inh baseline 0.3.
`COc1ccc(NC(=O)CCC(=O)N/N=C/c2cn(C)nc2C)cc1` gave KCNQ2 inh inactive and KCNQ2 inh baseline 0.34.
Screening Cc1ccc(-c2nc3n(n2)Cc2ccccc2-3)cc1 returned KCNQ2 inh inactive and KCNQ2 inh baseline 0.78.
Screening Cc1ccc(C)c(N2CCN(C(=O)C3CCCN(S(=O)(=O)c4cnc[nH]4)C3)CC2)c1 (stereo not given) returned KCNQ2 inh inactive and KCNQ2 inh baseline -0.5.
Screening CN1C(=O)C(C)(C)c2cc(S(=O)(=O)N3CCN(c4ccc(F)cc4)CC3)ccc21 returned KCNQ2 inh inactive and KCNQ2 inh baseline -1.5.
For CCOC(=O)C1CCN(S(=O)(=O)c2cc(C(=O)N3CCCCC3)ccc2OC)CC1 the results were KCNQ2 inh inactive and KCNQ2 inh baseline 0.06.
CC1(C)CC(NC(=O)c2coc(=O)c(Br)c2)CC(C)(C)N1 was read as KCNQ2 inh inactive and KCNQ2 inh baseline 0.11.
O=C(O)c1cccc(S(=O)(=O)N2CCN(Cc3ccc4c(c3)OCO4)CC2)c1 was read as KCNQ2 inh inactive and KCNQ2 inh baseline 1.
For Cc1occc1-c1nnc(SCC(=O)Nc2ccccc2)n1Cc1ccccc1 the results were KCNQ2 inh inactive and KCNQ2 inh baseline -0.78.
For CC(=O)c1ccc(NC(=O)c2ccc(N3C(=O)c4cccnc4C3=O)cc2)cc1 the results were KCNQ2 inh inactive and KCNQ2 inh baseline 2.8.
For COC(c1ccccc1)c1nnc(CCC(=O)NCCc2ccc(Cl)cc2)o1 (stereo not given) the results were KCNQ2 inh inactive and KCNQ2 inh baseline -0.33.
Screening CN(C)CCNc1oc(-c2cccc(Cl)c2)nc1C#N returned KCNQ2 inh inactive and KCNQ2 inh baseline -1.7.
O=C(NNC(=S)Nc1ccccc1)c1ccc2ncccc2c1 was read as KCNQ2 inh inactive and KCNQ2 inh baseline -0.98.
Screening O=C(COc1ccccc1)NCCSCc1ccccc1Cl returned KCNQ2 inh inactive and KCNQ2 inh baseline 2.4.
Screening COc1cccc(CNC(=O)C2CCCN(S(=O)(=O)c3c(C)n[nH]c3C)C2)c1 (stereo not given) returned KCNQ2 inh inactive and KCNQ2 inh baseline 0.23.
For CCOc1ccccc1-n1c(SCC(N)=O)nnc1-c1ccccc1 the results were KCNQ2 inh inactive and KCNQ2 inh baseline -1.9.
`O=C(CNC(=O)/C(=C\c1ccccc1)NC(=O)c1ccc(Br)cc1)OCc1ccccc1` gave KCNQ2 inh inactive and KCNQ2 inh baseline -0.6.
For CC(C)CN(C(=O)COC(=O)CNC(=O)c1ccccc1)c1c(N)n(Cc2ccccc2)c(=O)[nH]c1=O the results were KCNQ2 inh inactive and KCNQ2 inh baseline 0.28.
Screening COc1cccc(-c2ccc(NC(=O)C3CCCN(Cc4ccco4)C3)cc2)c1 (stereo not given) returned KCNQ2 inh inactive and KCNQ2 inh baseline -0.08.
Screening CC(C)Oc1ccc(C(=O)Nc2ncn[nH]2)cc1 returned KCNQ2 inh inactive and KCNQ2 inh baseline -0.26.
O=C(N/N=C/c1sc(N2CCOCC2)nc1-c1ccccc1)c1ccc(O)cc1 was read as KCNQ2 inh inactive and KCNQ2 inh baseline -0.54.
Screening CCNC(=S)Nc1ccc(-c2nc3ccccc3[nH]2)cc1 returned KCNQ2 inh inactive and KCNQ2 inh baseline -0.18.
Screening O=C(Nc1ccccc1F)C1CCN(C(=O)Cc2ccccc2)CC1 returned KCNQ2 inh inactive and KCNQ2 inh baseline -0.92.
Screening CCc1ccccc1NC(=O)N1CCc2ccccc2C1 returned KCNQ2 inh inactive and KCNQ2 inh baseline 0.33.
For O=C(NCc1cccnc1)C(=O)NCC(c1ccco1)N1CCN(c2ccc(F)cc2)CC1 (stereo not given) the results were KCNQ2 inh inactive and KCNQ2 inh baseline 0.12.
For COc1ccc(NC(=O)COc2ccccc2)cc1NC(=O)c1ccco1 the results were KCNQ2 inh inactive and KCNQ2 inh baseline -2.1.

Source: PubChem
